High-throughput results: PubChem BioAssay, several laboratories
Mtb betalactam: beta-lactam sensitization of Mtb H37Rv; M. tuberculosis H37Rv growth with meropenem, percent inhibition; hits of this screen are not shown here; inhibition, % at 25 µM; actives 0.27% (n = 330,000);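 active = about 74% or more and at least 40 points above the plate without the antibiotic, then above 30% in a dose series; inconclusive = first-round hits that could not be retested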;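 note: growth measured after seven days incubation then overnight dye step; 0% = bacteria only wells and 100% = bacteria with antibiotic; twin plates without the antibiotic show which effects depend on it; some results filed as inactive read as strong as hits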
YopH inh: blocks Yersinia enterocolitica YopH tyrosine phosphatase; fluorescence Ex485/Em525; actives 0.16% (n = 140,000); AID 898; inhibition, %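 (about 10 µM by stock and volumes)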;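 active = inhibition of 50% or more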;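 note: controls were vehicle for no effect and minimum signal wells for full effect; inactives centre near -20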
Mtb H37Rv: M. tuberculosis H37Rv growth inhibitors, H37Rv strain (AID 1626) | M. tuberculosis H37Rv growth inhibition; higher % means a stronger effect | inhibition, % at 10 µM, or IC50 in µM where a hit was titrated | actives 0.95% (n = 220,000);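 active = confirmed in a dose series; inconclusive = inhibition above 80% but not taken into the dose series; inactive = below 80% or under 30% at every dose of the series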;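 note: bacteria incubated seven days before Alamar blue readout; 0% = bacteria only wells and 100% = bacteria with antibiotic wells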
Arbovirus inh: arbovirus infection inhibition; AID 1251; arbovirus infection cell-based antiviral screen; inhibition, % at 10 µM; actives 0.37% (n = 200,000);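 active = inhibition from about 30%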;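 note: bluetongue infection of BSR cells; cell survival read as ATP light after 72 h; 0% = infected wells without compound and 100% = uninfected wells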
RecA splice inh: inhibitors of M. tuberculosis RecA intein splicing. cell-free RecA intein splicing, fluorescence. inhibition, %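 (about 9 µM by stock and volumes)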. actives 0.75% (n = 290,000). P9WHJ3; in the data active = inhibition above about 30%; inconclusive = no clear call, values can overlap the other calls;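 note: 0% = vehicle wells and 100% = reference inhibitor control wells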
Target sequence (P9WHJ3 whole entry, looked up, canonical isoform): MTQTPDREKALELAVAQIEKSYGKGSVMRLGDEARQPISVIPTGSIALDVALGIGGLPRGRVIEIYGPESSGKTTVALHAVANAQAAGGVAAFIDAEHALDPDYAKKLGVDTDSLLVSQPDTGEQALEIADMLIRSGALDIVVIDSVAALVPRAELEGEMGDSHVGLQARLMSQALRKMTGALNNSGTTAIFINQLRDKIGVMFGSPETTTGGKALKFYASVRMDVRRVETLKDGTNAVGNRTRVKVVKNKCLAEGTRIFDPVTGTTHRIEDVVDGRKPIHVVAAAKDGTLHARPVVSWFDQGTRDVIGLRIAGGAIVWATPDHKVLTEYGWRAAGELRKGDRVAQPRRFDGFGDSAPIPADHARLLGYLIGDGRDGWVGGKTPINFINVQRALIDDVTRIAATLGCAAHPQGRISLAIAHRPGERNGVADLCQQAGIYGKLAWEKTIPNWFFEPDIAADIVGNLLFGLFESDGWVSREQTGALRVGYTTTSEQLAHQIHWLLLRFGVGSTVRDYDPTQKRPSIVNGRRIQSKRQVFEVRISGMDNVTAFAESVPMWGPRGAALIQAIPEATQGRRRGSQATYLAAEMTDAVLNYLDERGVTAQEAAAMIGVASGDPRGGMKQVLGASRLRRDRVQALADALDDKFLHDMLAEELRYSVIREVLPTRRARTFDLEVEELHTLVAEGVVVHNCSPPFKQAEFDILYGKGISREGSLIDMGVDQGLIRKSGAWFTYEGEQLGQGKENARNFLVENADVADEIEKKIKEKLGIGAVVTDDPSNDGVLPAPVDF
Arbovirus inh repeat: recorded beside Arbovirus inh, whose call it bears; inhibition, %; measured here: 10K subset replicate screen; many hits read low in the repeat;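 first of two repeat runs on a subset; 0% = infected and 100% = uninfected wells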
The depositor's hits bear a star; ? = inconclusive; / = not tested or not shown; & = joins results of further samples. A portion of the library; rates above refer to the full screens.

SMILES | Mtb betalactam | YopH inh | Mtb H37Rv | Arbovirus inh | RecA splice inh | others
COc1ccc(NC(=O)C2=CC(c3cccs3)=NS(=O)(=O)N2C)cc1 | -2 | / | / | / | 4.1
COc1cccc(C2CC(=O)Nc3cc4c(cc32)OCCO4)c1OC(C)C (stereo unspecified) | -1 | -19 | 1% | 7 | / | Arbovirus inh repeat=-8
O=C(CSCCc1ccccn1)Nc1ccc(Br)cn1 | -3 | 18 | -3% | 1 | -0.4
O=C(CCNS(=O)(=O)c1cccs1)Nc1nccs1 | 5 | -38 | -5% | 3 | -1.8
O=C(O)c1ccccc1C(=O)NNc1ccc(F)cc1 | 96 | -22 | ? | -29 | -4.4
CS(=O)(=O)N(CC(=O)N1CCOCC1)c1cc(Cl)ccc1Cl | -2 | / | / | / | 0.4
CCC(/C=N/NC(=O)c1ccccc1F)CC | 92 | / | -2% | 11 | -3.0
COc1cccc(NC(=O)COc2cc(O)c3c(c2)OC(C)(C)CC3=O)c1 | -10 | / | / | / | 13
COc1ccc(N2Cc3cccc(C(=O)NC(C)CCc4ccco4)c3C2=O)cc1 (stereo unspecified) | 2 | -41 | 0% | 4 | 5.6 | Arbovirus inh repeat=2
Cc1ccc(NC(=O)c2oc3ccccc3c2NC(=O)c2ccc3c(c2)OCO3)cc1 | -10 | -37 | -2% | -8 | -8.7
COc1cccc(N2CCN(C3C4CC5CC(C4)CC3C5)CC2)c1 (stereo unspecified) | -23 | -11 | -5% | -21 | 1.0
COc1ccc(NC(C)=O)cc1NC(C)C(=O)Nc1ccccc1F (stereo unspecified) | -8 | -19 | -5% | 5 | -0.5
c1cncc(-c2nc(NCc3ccc4c(c3)OCO4)c3ccccc3n2)c1 | 91 | / | 76% | / | 0.0
CC(C)C(=O)Nc1ccc(NC(=O)c2ccc(COc3ccccc3)cc2)cc1 | -1 | / | / | / | -2.2
CCOC(=O)C1=C(O)/C(=C\c2cc(C)n(-c3ccccc3F)c2C)N=C1C | 4 | / | 2% | -1 | -1.7
CC1CCCC(NC(=O)CCC(=O)NCc2ccccc2)C1C (stereo unspecified) | -7 | / | / | / | -3.9
CCc1ccccc1NC(=O)NCCN1CCCCC1 | -9 | / | / | / | -4.0
COC(=O)C1=C(C(=O)OC)[C@@H]2N(C)c3ccc(OC)cc3[C@@]23C[C@@H](C(=O)OC)N(C(=O)c2ccco2)C3=N1 | -14 | / | 1% | / | -1.7
CCc1ccc(NC(=O)C2C3CCC(O3)C2C(=O)O)cc1 (stereo unspecified) | -2 | / | / | / | -1.4
COc1ccccc1CN1C[C@@H]2C[C@@H](C3=Cc4cc(Cl)ccc4OC3)N3CCC[C@@]23C1=O | 6 | / | 8% | 1 | 13

Retrieved by compound from above, two records:
SMILES | Mtb betalactam | YopH inh | Mtb H37Rv | Arbovirus inh | RecA splice inh | others
CCc1ccc(NC(=O)C2C3CCC(O3)C2C(=O)O)cc1 (stereo unspecified) | -2 | / | / | / | -1.4
CC1CCCC(NC(=O)CCC(=O)NCc2ccccc2)C1C (stereo unspecified) | -7 | / | / | / | -3.9

Additional structures
SMILES | Mtb betalactam | YopH inh | Mtb H37Rv | Arbovirus inh | RecA splice inh | others
CCCSCC(=O)Nc1ncc2c(n1)-c1ccccc1CC2 | 13 | / | 51% | -11 | 8.9
COc1ccccc1N1CCN(C(=O)c2oc3cc(C)c(C)cc3c2C)CC1 | / | 10 | 1% | 23 | 17
COC(=O)C(CCSC)NC(=O)Cn1ncc2c(=O)oc3ccccc3c21 (stereo unspecified) | -1 | -40 | -7% | 7 | -0.9
CCCCCCCc1c(O)nc(SCC(=O)O)[nH]c1=O | 8 | / | 5% | / | -1.3
Cc1c(C(=O)c2no[n+]([O-])c2C(=O)c2cnn(C)c2C)cnn1C | -20 | 0 | -11% | 16 | -0.1
CCS(=O)(=O)Nc1ccc(C2=NN(S(=O)(=O)c3ccc(F)cc3)C(c3ccco3)C2)cc1 (stereo unspecified) | 15 | 17 | 7% | 4 | 1.9
Cc1ccc(OCC(=O)N/N=C/c2ccncc2)cc1 | 21 | -30 | / | 0 | 0.5
O=C(Nc1cccc(Br)c1)c1c(O)c2c(n(Cc3ccccc3)c1=O)CCCC2 | 6 | / | 1% | / | 9.1
COc1ccc(/C=N/N2CCOCC2)cc1COc1ccc(F)cc1 | 78 | / | ? | 0 | 5.6
CC(=O)c1ccc(NC(=O)c2cc(Cl)sc2Cl)cc1 | 9 | -25 | 5% | 1 | 1.6
Nc1ccccc1SCc1cc([N+](=O)[O-])cc2c1OCOC2 | 0 | -38 | 1% | -9 | -2.8
CCN(CC)CCn1c(NCc2cccc(OC)c2OC)nc2ccccc21 | -10 | -13 | -4% | 29 | -1.4
COc1ccc(NC(=S)NC2CC3CCCC(C2)N3C2CC2)cc1 (stereo unspecified) | 0 | / | -3% | 4 | 0.8
CCCSc1nc(C)c(-c2csc(C(C#N)=C3CCCC3)n2)cc1C#N | 2 | -49 | -3% | 8 | 14
Cc1ccc(NC(=O)CCC(=O)NNC(=O)NC23CC4CC(CC(C4)C2)C3)cc1C | -2 | / | 8% | 3 | -2.7
CC(=O)/C(N=Nc1ccc2c(c1)OCCO2)=C(\C)O | -1 | / | -4% | 6 | 5.2
Cc1ccc2c(c1)N(CC(=O)NCC1CCCO1)C(=O)C(C)O2 (stereo unspecified) | -3 | -20 | 3% | 4 | 3.4
Cc1ccccc1COc1ccc(-c2nn[nH]n2)cc1 | -2 | / | / | / | -1.2
C/C(=N/N1CCN(Cc2cccc3ccccc23)CC1)c1ccco1 | 6 | / | -5% | / | 3.4
Cc1c(Cl)cccc1-n1nnnc1-c1cccs1 | 5 | -3 | -5% | -6 | 2.5
Cc1cccc(OCC(=O)N=Nc2c(O)[nH]c3ccc([N+](=O)[O-])cc23)c1 | -8 | / | -2% | / | 13
Cc1nnc(NC(=O)c2c(F)cccc2F)s1 | -4 | -4 | -3% | 10 | -6.0
C=CCn1cc(F)c(=O)n(CC=C)c1=O | -3 | / | -10% | 2 | -1.4
O=C(NCCO[N+](=O)[O-])c1cccnc1 | -8 | / | -9%&1% | 16 | 2.2
Cc1cc(C(=O)CSc2cccc[n+]2[O-])c(C)n1-c1ccccc1 | 51 | / | 10% | -1 | /
O=C(NCCc1cccc(Cl)c1)c1cccc([N+](=O)[O-])c1 | -4 | 6 | 9% | -4 | 0.4
O=C(CCN1C(=O)c2ccccc2C1=O)Nc1sc2c(c1C(=O)NCc1ccco1)CCCC2 | -9 | -23 | -10% | 3 | -2.4
CCCCN(CC)Cc1ccc(CNC(=O)Nc2ccc(F)cc2)o1 | -22 | -16 | -3% | -3 | -0.5
CCOc1ccc(NC(=O)CCC(=O)c2ccc(OC)cc2)cc1 | 96 | / | / | / | -5.2
Cc1ccc(NC(=O)C2CC(=O)Nc3ncnn32)cc1Cl (stereo unspecified) | -5 | / | -4% | / | 2.5
COC(=O)C1=C(C)N(c2cccc(C)c2)C(=O)/C1=C\c1cccs1 | -2 | -14 | -1% | -1 | -3.4
CCCCCCOc1ccc(N2C(=O)CC(SCCN)C2=O)cc1 (stereo unspecified) | -4 | / | / | / | 5.2
CCSc1nnc(NC(=O)[C@@H](NC(=O)c2ccc(C(C)(C)C)cc2)C(C)C)s1 | 96 | -6 | 28% | 10 | 4.0
Cc1noc(NS(=O)(=O)c2ccc(N/C=C\C(=O)c3ccc(Br)cc3)cc2)c1C | 20 | / | -7% | 22 | 8.2
CC(OC(=O)CCN1C(=O)C2CC=CCC2C1=O)C(=O)Nc1cccc(C#N)c1 (stereo unspecified) | -9 | / | / | / | -1.2
COC(=O)c1ccc2c(=O)n(CC3CCCO3)c(SCC(=O)NCCc3ccc(S(N)(=O)=O)cc3)nc2c1 (stereo unspecified) | 4 | / | -3% | 3 | -0.5
O=C(NCCC(NS(=O)(=O)OCC(Cl)(Cl)Cl)c1ccccc1)C(F)(F)F (stereo unspecified) | -4 | / | / | / | 0.2
COc1ccc2c(CN3CC=C(c4ccccc4)CC3)cc(=O)oc2c1 | 0 | / | -5% | 2 | 0.7
COc1ccc(CCNC(=O)C2CC(=O)N(C3CCCCCCC3)C2)cc1OC (stereo unspecified) | / | -55 | 5% | -3 | 3.8
CC(C)OP(=O)(OC(C)C)C(O)c1ccccc1F (stereo unspecified) | 1 | -19 | -5% | -3 | -1.2
CON(C)S(=O)(=O)c1ccc2c(c1)NC(=O)C1CCCN21 (stereo unspecified) | 81 | -19 | 3% | 8 | -105
Cc1noc(C)c1C(=O)N1CCN(S(=O)(=O)c2ccc(F)cc2)CC1 | -10 | / | 3% | 0 | 5.7
COc1cccc(C(=O)Nc2cccc3ccccc23)c1 | -5 | / | / | / | -1.3
Cc1ccc(-c2cc(C(=O)Nc3cc(C(=O)O)ccc3C)c3ccccc3n2)cc1 | 3 | / | -2% | 4 | /
O=C(COc1coc(CN2CCN(c3cccc(Cl)c3)CC2)cc1=O)NC1CCCC1 | 1 | / | / | / | -1.0
CCCCCCC(=O)Nc1ccc(Cl)cn1 | 4 | 0 | 12% | -7 | -2.4
COc1ccc(OC)c(/C=N/NC(=O)c2ccc(=O)[nH]n2)c1 | -2 | / | -9% | / | -5.3
Cc1ccnc(NC(=O)C2CC(=O)N(c3ccc4c(c3)OCCO4)C2)c1 (stereo unspecified) | -3 | / | / | / | -0.9
C=CCNC(=O)C1CCN(c2ccc(S(=O)(=O)N3CCOCC3)cc2Cl)CC1 | -1 | / | -4% | -8 | -2.2
COC(=O)c1ccccc1NC(=S)NC(=O)COc1ccccc1Cl | -2 | -8 | / | 0 | -0.3
(further entries)
SMILES | Mtb betalactam | YopH inh | Mtb H37Rv | Arbovirus inh | RecA splice inh | others
CCOC(=O)C1CCN(c2cc3c(cc2NC(=O)c2ccccc2F)n(C)c(=O)n3C)CC1 | 6 | / | / | / | -1.8
Cc1cc(C)cc(N(CC(=O)NCc2ccco2)S(=O)(=O)c2ccccc2)c1 | -1 | / | / | / | 4.3
O=C(Nc1ccc(F)cc1)OC1CN2CCC1CC2 (stereo unspecified) | 8 | / | -9% | / | /
O=C(Nc1ccccc1C(=O)NCc1cccnc1)c1ccco1 | -6 | 3 | 7% | 5 | -0.1
COc1ccc(CNS(=O)(=O)NCc2ccccc2F)cc1 | 2 | / | / | / | 1.9
O=C(CSc1nnc(-c2ccccc2)n1Cc1ccccc1)N1CCOCC1 | -6 | -49 | -5% | -2 | 4.3
O=C1Nc2ccccc2/C1=C/c1nc2ccccc2c(=O)n1-c1ccc(O)cc1 | -6 | / | 3% | / | 5.5
CCOC1=C/C(=C/c2c(N)n3nc(CC(=O)N4CCCCC4)sc3nc2=O)C=CC1=O | 3 | / | / | / | 1.4
CC(=O)Nc1cc(S(=O)(=O)Nc2ccccc2)c(C)cc1C | 1 | -21 | -2% | -7 | -0.1

Entries shown so far containing fluorine (15):
SMILES | Mtb betalactam | YopH inh | Mtb H37Rv | Arbovirus inh | RecA splice inh | others
O=C(O)c1ccccc1C(=O)NNc1ccc(F)cc1 | 96 | -22 | ? | -29 | -4.4
CCC(/C=N/NC(=O)c1ccccc1F)CC | 92 | / | -2% | 11 | -3.0
COc1ccc(NC(C)=O)cc1NC(C)C(=O)Nc1ccccc1F (stereo unspecified) | -8 | -19 | -5% | 5 | -0.5
CCOC(=O)C1=C(O)/C(=C\c2cc(C)n(-c3ccccc3F)c2C)N=C1C | 4 | / | 2% | -1 | -1.7
CCS(=O)(=O)Nc1ccc(C2=NN(S(=O)(=O)c3ccc(F)cc3)C(c3ccco3)C2)cc1 (stereo unspecified) | 15 | 17 | 7% | 4 | 1.9
COc1ccc(/C=N/N2CCOCC2)cc1COc1ccc(F)cc1 | 78 | / | ? | 0 | 5.6
Cc1nnc(NC(=O)c2c(F)cccc2F)s1 | -4 | -4 | -3% | 10 | -6.0
C=CCn1cc(F)c(=O)n(CC=C)c1=O | -3 | / | -10% | 2 | -1.4
CCCCN(CC)Cc1ccc(CNC(=O)Nc2ccc(F)cc2)o1 | -22 | -16 | -3% | -3 | -0.5
O=C(NCCC(NS(=O)(=O)OCC(Cl)(Cl)Cl)c1ccccc1)C(F)(F)F (stereo unspecified) | -4 | / | / | / | 0.2
CC(C)OP(=O)(OC(C)C)C(O)c1ccccc1F (stereo unspecified) | 1 | -19 | -5% | -3 | -1.2
Cc1noc(C)c1C(=O)N1CCN(S(=O)(=O)c2ccc(F)cc2)CC1 | -10 | / | 3% | 0 | 5.7
CCOC(=O)C1CCN(c2cc3c(cc2NC(=O)c2ccccc2F)n(C)c(=O)n3C)CC1 | 6 | / | / | / | -1.8
O=C(Nc1ccc(F)cc1)OC1CN2CCC1CC2 (stereo unspecified) | 8 | / | -9% | / | /
COc1ccc(CNS(=O)(=O)NCc2ccccc2F)cc1 | 2 | / | / | / | 1.9
